# Screens (PubChem BioAssay)
# VACV mCherry inh: vaccinia inhibition (mCherry reporter); AID 720579; Vaccinia virus mCherry reporter infection, fluorescence; about a quarter of the inactives have no number; Potency, µM (titrated, usually from 36.5 µM), without a hit: at the highest dose activity change, negative = inhibition, actives largely listed as inhibitors; 310,000 compounds, 0.63% hits; active = well fitted inhibition curve with a large enough effect; inconclusive = small, poorly fitted or top-dose-only effect; inactive = no such curve, though single readings can be large or run the other way; tested in A549 cells; note: nearly all actives have a fitted effect of over 35% in size; inactives centre near -10
# VACV Venus inh: vaccinia inhibition (Venus reporter); Vaccinia virus Venus reporter expression, fluorescence; 330,000 compounds, 0.46% hits; AID 720580; Potency, µM (titrated, usually from 36.5 µM), inactives show at the highest dose activity change, negative = inhibition, most hits filed as inhibitors; active means well fitted inhibition curve with a large enough effect; inconclusive means small, poorly fitted or top-dose-only effect; inactive means no such curve, though single readings can be large or run the other way; tested in A549 cells; note: nearly all actives have a fitted effect of over 30% in size; inactives centre near -10
# Starred values were filed as active, the others as inactive; i = inactive; ? = inconclusive; / = not tested or not shown; & = joins results of further samples; [ ] = remark or other dose. % is set by controls: 0 for no effect and ±100 for the full control effect; potency is the fitted concentration of half-maximal effect. An unsorted share of the library; about 0.87% have a hit in one of these screens.
molecule | VACV Venus inh | VACV mCherry inh
Cc1cc(-c2nnc(SCC(=O)Nc3ccc(F)cc3)n2N)n[nH]1 | 0.1% | -12.5%
Clc1ccc(N2CCN(Cc3ccco3)CC2)cc1 | -9.6% | i
COCc1[nH]nc2c1C1(CCSCC1)C(C#N)=C(N)O2 | -10.5% | ?
O=Cc1ccc2[nH]ccc2c1 | -5.3% | -15.2%
Cc1ccccc1OCC(=O)NCCN(C)C | -8.4% | /
O=C1C=C(c2ccc(C(=O)O)cc2)C[C@@H](c2ccc3c(c2)OCO3)C1 | -23.2% | i
COc1ccc(CCN=Cc2ccc(O)cc2)cc1OC | 1.8% | i
O=C(Cn1nc(C(=O)O)c2ccccc2c1=O)c1c[nH]c2ccccc12 | -5.1% | -11.4%
O=C(c1ccccc1)c1sc(Nc2ccc3c(c2)OCO3)nc1-c1ccccc1 | -0.8% | 3.9%
CCN(C1CCS(=O)(=O)C1)S(=O)(=O)c1cccc([N+](=O)[O-])c1 (configuration not stated) | -10.6% | -21.6%

# The list continues.
molecule | VACV Venus inh | VACV mCherry inh
O=C(NCCCCO)C(F)(F)C(F)(F)C(F)(F)C(=O)NCCCCO | -4.1% | -9.1%
C#C[C@@]1(O)CCC2C3CCc4cc(O)ccc4C3CC[C@@]21C (some centres not stated) | -25.4% | -11.3%
Cc1ccc([N+](=O)[O-])c(OCCN2CCC(Cc3ccccc3)CC2)c1 | -12.0% | -13.7%
O=C(Cc1ccc(Br)cc1)Nc1cccc(S(=O)(=O)N2CCCCC2)c1 | ? | -27.4%
COc1ccc(S(=O)(=O)N(CCC(=O)O)Cc2ccccc2)cc1 | 2.7% | -6.4%
COc1ccc(-c2cc(C)no2)cc1S(=O)(=O)Nc1ccc(NC(C)=O)cc1 | -19.8% | -3.0%
COc1cccc(C(=O)N2CCN(c3nc4cc(C)cc(C)c4cc3C#N)CC2)c1 | -22.7% | -11.8%
Cc1nn(Cc2ccccc2)c(Cl)c1/C=N/NC(=O)CNc1cccc(C(F)(F)F)c1 | ? | ?
CCCC(=O)NC(c1ccc(OCC)cc1)c1ccc(OC)c(OC)c1 (configuration not stated) | -1.6% | -14.2%
COCCN(C(=O)CCC(=O)Nc1ccccn1)C(C(=O)NC1CCCC1)c1ccc(OC)cc1 (configuration not stated) | -16.9% | /

# The listing continues.
molecule | VACV Venus inh | VACV mCherry inh
CC(NC(=O)c1ccco1)C(=O)N1CCN(C(c2ccccc2)c2ccccc2)CC1 (configuration not stated) | -21.3% | -0.2%
Cc1ccc(OC(=O)Nc2ccccc2)cc1 | -3.6% | i
CC1(C)C(CC(=O)O)CC1C(=O)O (configuration not stated) | -7.2% | i
COc1ccc(CNS(=O)(=O)c2ccc(F)cc2Br)cc1 | -13.5% | -2.4%
Cc1c(N=Cc2ccncc2)c(=O)n(-c2ccccc2)n1C | -23.7% | /
N/C(=N\OC(=O)c1cc(Br)ccc1Cl)c1cccnc1 | -5.6% | i
CCN1C(=O)[C@H]2[C@@H](c3ccc(OC)cc3)N[C@]3(CCCN(Cc4ccccc4)C3=O)[C@H]2C1=O | -6.7% | i
C=CCN1C(=O)/C(=C\c2ccc(Cl)cc2)N=C1SCC(=O)NCCC | -8.4% | /
COc1ccccc1-c1cn[nH]c1-c1ccc(OCc2ccccc2F)cc1O | -23.2% | ?
CCOC(=O)C1CCN(c2nc3ccccc3nc2C(C#N)C(=O)OC(C)COC)CC1 (configuration not stated) | -14.2% | -18.0%

# Next section
molecule | VACV Venus inh | VACV mCherry inh
Cc1ccc(S(=O)(=O)N2CCOCC2)cc1NC(=O)Cn1ccsc1=N | -14.2% | /
CC(=O)CC[C@@H](C)O[C@@H]1OC(C)[C@H](O)CC1O (some centres not stated) | -14.0% | -8.0%
Cc1ccc2c(c1)[nH]c1c(=O)n(CCCN3CCOCC3)cnc12 | -35.8% | /
COc1ccc(-c2cnn(C3CCS(=O)(=O)C3)c2N)cc1 (configuration not stated) | -13.4% | /
CC(C)CNC(=O)c1ccccc1NC(=O)CN(c1ccccc1)S(=O)(=O)N(C)C | -11.5% | -2.9%
COc1ccc(Cn2c(CNC(=O)Cc3ccc(OC)c(OC)c3)nc3cccnc32)cc1 | -7.6% | -5.2%
COc1ccc(/C=N/NC(=O)c2ccc(CSc3nc(C)cc(C)n3)cc2)c(OC)c1OC | -27.8% | ?
CN(C)c1ccc(CNn2cnnc2)cc1 | -8.1% | -12.5%
COc1ccc(-c2c(C)nn3c(-c4ccccc4)cc(-c4ccccc4)nc23)cc1 | -6.1% | -2.6%
CCN(CC)CCNC(=O)c1ccc(CS(=O)(=O)c2ccc(Br)cc2)o1 | -0.2% | -10.6%

# Additional entries
molecule | VACV Venus inh | VACV mCherry inh
COCC1CCN(C(=O)c2ccc3oc(Cc4ccc(Cl)cc4)nc3c2)C1 (configuration not stated) | -17.9% | -22.6%
COc1cccc(CNC(=O)c2ccc3nc(CCc4ccccc4)oc3c2)c1OC | 7.1% | -12.2%
COc1ccc(C(=O)Nc2ccc(Oc3ncnc4sc(-c5ccccc5)cc34)cc2)cc1OC | -13.9% | -11.6%
Cc1csc(NC(=O)CSc2nnc(-c3ccoc3C)n2Cc2ccco2)n1 | -9.4% | i
Cc1cc(=O)[nH]c(-c2ccccc2O)n1 | -16.7% | ?
Cc1ccc(C(=O)N(CC(=O)NC2CCCC2)c2ccc(F)cc2)s1 | -23.7% | -19.8%
N#Cc1ccc(-c2nc3ccc(Br)cn3c2Cc2ccccc2)cc1 | -6.8% | -9.8%
O=C(NC1CN2CCC1CC2)c1ccc(-c2ccc([N+](=O)[O-])cc2)o1 (configuration not stated) | -18.2% | -20.4%
CCN1CCN(CC(=O)N2N=CCC2c2ccccc2)CC1 (configuration not stated) | -22.0% | ?
CC(C)C[C@H](NC(=O)c1[nH]cnc1C(=O)N[C@@H](Cc1ccccc1)C(=O)OCc1ccccc1)C(=O)OC(C)(C)C | -27.7% | -7.1%

# (cont.)
molecule | VACV Venus inh | VACV mCherry inh
CCCC(=O)Nc1c(-c2ccccc2)c(=O)c(C)nn1-c1ccccc1 | 3.8% | -2.2%
COc1ccc(CCNC(=O)C2CCCN(S(=O)(=O)c3cccc4nonc34)C2)cc1OC (configuration not stated) | -24.0% | /
CCCC(c1nnnn1Cc1ccco1)N1CCN(C2CCCC2)CC1 (configuration not stated) | 2.3% | -0.1%
COc1ccc(CNC(=O)Cn2cc(C(F)(F)F)ccc2=O)cc1OC | 5.9% | -9.5%
CCSc1nnc(SCC(=O)N2CCN(C(=O)c3ccco3)CC2)s1 | -4.7% | -10.7%
CCC(C(=O)OC)n1cnc2c(nnn2-c2ccc(F)cc2)c1=O (configuration not stated) | -13.7% | i
CC(C)[C@H](NC(=O)OC(C)(C)C)C(=O)N/N=C/c1cccc2nccnc12 | -11.9% | -12.1%
Cc1ccc2[nH]c(=O)c(Cc3ccccc3)c(O)c2c1 | 1.7% | -1.1%
COC(=O)c1cc(NC(=O)Cc2ccc(OC)cc2)cc(C(=O)OC)c1 | -19.5% | i[1.46 µM]
CCOc1ccc(CNC(=O)CCCc2cn(C)c3ccccc23)cc1OC | -13.3%&-10.0% | -14.3%&5.9%

# Among those listed so far, two contain a tert-butyl group:
molecule | VACV Venus inh | VACV mCherry inh
CC(C)C[C@H](NC(=O)c1[nH]cnc1C(=O)N[C@@H](Cc1ccccc1)C(=O)OCc1ccccc1)C(=O)OC(C)(C)C | -27.7% | -7.1%
CC(C)[C@H](NC(=O)OC(C)(C)C)C(=O)N/N=C/c1cccc2nccnc12 | -11.9% | -12.1%

# Going on with the list.
molecule | VACV Venus inh | VACV mCherry inh
NC1CCc2cc(O)c(O)cc2C1 (configuration not stated) | -5.6% | -17.6%[87.9 µM]
CCOC(=O)c1c(NC(=O)c2cc(=O)c3cc(C)cc(C)c3o2)sc(C)c1C | -7.7% | 0.9%
COc1ccc(S(=O)(=O)Nc2ccc3c(c2)n(C)c(=O)n3C)cc1C | -16.8% | -8.3%
O=C(Nc1ccc(Oc2ccccc2)cc1)c1csc([C@@H]2O[C@H](CO)[C@H](O)[C@H](O)[C@H]2O)n1 | -3.8% | 1.6%
Cc1ccc(NC(=O)CN2C(=O)c3ccccc3Sc3ccc(C(=O)N4CCOCC4)cc32)cc1F | -8.8% | -2.3%
O=C(CSc1nnc(NC(=O)c2c(F)cccc2F)s1)NCC1CCCO1 (configuration not stated) | -2.1% | -8.4%
O=C(CN(Cc1cccs1)C(=O)CNS(=O)(=O)c1ccccc1)NC1CCCC1 | -4.6% | i
Nc1nc(N2CCOCC2)nc(N(c2ccccc2)c2ccccc2)n1 | -13.3% | -13.8%
CCCCC[C@H](O)/C=C/[C@@H]1[C@H]2C/C(=C/CCCC(=O)O)C[C@H]2C[C@H]1O | -18.5% | -4.1%
CCSc1ncc(Cl)c(C(=O)Nc2nc3ccc(S(C)(=O)=O)cc3s2)n1 | -16.6% | -9.7%

# Next part.
molecule | VACV Venus inh | VACV mCherry inh
O=C(CCl)N(C1CCCC1)C1CCS(=O)(=O)C1 (configuration not stated) | ? | ?
CC1CCN(C(=O)CSc2c3c(nc4ccc(Cl)cc24)CCCC3)CC1 | -17.4% | -8.0%
CC1CCN(S(=O)(=O)c2ccc(NC(=O)CNC3CCCCC3)cc2)CC1 | -11.3% | -5.3%
CC1CCN(C(=O)C(C)OC(=O)c2ccc(S(C)(=O)=O)c([N+](=O)[O-])c2)CC1 (configuration not stated) | -19.1% | -16.3%
CCOC(=O)c1sc2nc(OCc3cccnc3)cc(C)c2c1N | -6.8% | -11.3%
CCN(CC)c1ccc(/C=C2\SC(N)=NC2=O)cc1 | 2.1% | -9.1%
CCc1ccccc1NC(=O)c1ccc2nc(C(C)C)oc2c1 | -23.6% | ?
O=C(OCc1ccccc1)N1CCOCCOCCN(C(=O)OCc2ccccc2)CCOCCOCC1 | -15.2% | -17.6%
COc1ccc(/C=C2\N=C(c3ccccc3)NNC2=O)cc1 | -2.5% | -15.2%
Cc1cccc(Cn2cc(C(=O)Nc3ccc(F)c(C(F)(F)F)c3)ccc2=O)c1 | -7.1%[7.34 µM] | -12.8%[7.34 µM]

# Following part:
molecule | VACV Venus inh | VACV mCherry inh
CCCCNC1=NCCS1 | -2.0% | i
CN(C)c1ccc(C(=S)N2CCN(c3ccccc3)CC2)cc1 | -6.8% | -5.0%
CCOC(=O)C1(CCOc2ccccc2)CCN(Cc2cccc(OCCO)c2)CC1 | -9.0% | -16.9%
O=C(CSc1ncn(-c2ccccc2)n1)c1cccs1 | -10.0% | -18.4%
COc1cccc(NC(=O)CC2C(=O)NC3CCCCC3N2C(=O)c2ccccc2)c1 (configuration not stated) | -10.7% | i
O=C(COc1ccc(Br)cc1)NNC(=O)c1cc(S(=O)(=O)N2CCOCC2)ccc1Cl | -14.4% | i
COc1ccc(C)cc1NC(=O)C(=O)NCCc1sc(-c2cccc(C)c2)nc1C | 2.4% | -2.1%
COc1cc(C)c(S(=O)(=O)N2CCN(C)CC2)cc1C | -13.8% | -9.2%
CCCc1nn2c(=O)cc(COc3ccc(/C=C(\C#N)C(=O)Nc4ccc(F)cc4)cc3)nc2s1 | -4.7% | 1.4%
CCOC(=O)c1c(C)[nH]c(N=Nc2ccc(OC)cc2)c1C | 0.0%[7.34 µM] | i[7.34 µM]

# The listing continues:
molecule | VACV Venus inh | VACV mCherry inh
CCOc1cc(C2/C(=C(/O)c3ccc(OC)cc3)C(=O)C(=O)N2CC2CCCO2)ccc1O (configuration not stated) | 12.9%[7.34 µM] | 3.8%[7.34 µM]
O=C(O)Cc1c(-c2ccccc2)c2cc(Cl)ccc2[nH]c1=O | -0.5% | -29.3%
CCC(C)(C)NC(=O)C(Sc1ccccc1)c1ccccc1 (configuration not stated) | 8.5% | -2.8%
CC(C)=CCC/C(C)=C/C=N/NC(=O)c1ccc([N+](=O)[O-])cc1 | -29.0% | -1.2%
C#CCOCCOCCOCCNc1nc(N2CCN(C(=O)Cn3cc(CCO)nn3)CC2)nc(N2CCN(C(=O)Cn3cc(CCCCN)nn3)CC2)n1 | -0.2% | -10.5%
COC(=O)C(C)NC(=O)C1CCCN1C(=O)CNC(=O)OCc1ccccc1 (configuration not stated) | -4.7% | i
COc1ccc(N2C(=O)NC(NC(=O)c3cccnc3)(C(F)(F)F)C2=O)cc1 (configuration not stated) | -10.5% | -0.5%
C[C@H]1CCCCO[C@@H](CN(C)C(=O)NC2CCCCC2)[C@@H](C)CN([C@@H](C)CO)C(=O)c2cc(NC(=O)Cc3ccccc3)ccc2O1 | ? | -16.1%
CC(C)OC(=O)C(CC(=O)O)NCc1ccccc1 (configuration not stated) | -1.7% | /
CCN(CC)C(=O)c1cc2c(=O)n3cccc(C)c3nc2n1C | -16.4% | -18.6%

# (continued)
molecule | VACV Venus inh | VACV mCherry inh
O=C(O)c1nn(Cc2csc(-c3ccccc3)n2)c(=O)c2ccccc12 | -8.8% | -4.3%
CCCCC/C=C\C[C@@H](O)/C=C/C=C/C=C\[C@@H](O)CCCC(=O)O | -4.3%[0.293 µM] | -15.7%[0.293 µM]
CCOc1cc(-c2noc(CCC(=O)NCC3CCCO3)n2)ccc1OC (configuration not stated) | -9.6% | i
O=C1CSC(=S)N1N=Cc1ccc2c(c1)OCO2 | 22.6% | -3.0%
CCOC(=O)c1c(NC(=O)COC(=O)C2CCC2)sc(C(=O)N(C)C)c1C | -10.5% | i
CCN1C(=O)C(O)(CC(=O)/C=C/C=C/c2ccccc2)c2ccccc21 (configuration not stated) | ? | ?
CN1C(=O)C(C)(C)c2cc(S(=O)(=O)N3CCCC(C(=O)Nc4ccc(Cl)cc4)C3)ccc21 (configuration not stated) | ? | ?
COc1cc2c(=O)c(-c3ccc(O)cc3)coc2cc1OC1OC(CO)C(O)C(O)C1O (configuration not stated) | -3.8% | i
Nc1ccc(Cc2nc3c(ccc4ccccc43)[nH]2)cc1 | -13.6% | -19.4%
